miR-21 FLuc: raises the signal of a miR-21 reporter; HeLa miR-21 FLuc reporter, luciferase, 48 h; Potency, µM (highest dose often 38.3 µM), for inactives: at the highest dose reporter change, positive = more light; 340,000 tested, under 10 active; AID 2288; active = well fitted rising curve with a large enough effect; inconclusive = small, poorly fitted or top-dose-only effect; inactive = no such curve, though single readings can be large or run the other way;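 note: % of control where 0% means no effect; miR-21 action dims this reporter so a rising signal means less miR-21 action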
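Compounds were titrated across several concentrations (up to approximately 40 uM) and incubated 48 hours with HeLa miR-21-FLuc reporter cells (miR-21 target sequence downstream of FLuc, endogenous miR-21). Readout was firefly luciferase luminescence after lytic detection reagent.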
Starred values were filed as active, the others as inactive; u = inconclusive. This is a subset. The share of hits here may be higher or lower than overall.

SMILES	miR-21 FLuc
Cc1ccccc1Nc1nn2c(=O)c3ccc(C(=O)NCCc4ccc(Cl)cc4)cc3nc2s1	2%
CCOc1ccc(C2C(C(=O)Nc3ccccc3)=C(C)Nc3nc(SCc4cccc(OC)c4)nn32)cc1 (stereo not drawn)	-5%
Cc1ccc(C)c(Cn2c(=O)n(CCc3ccccc3)c(=O)c3c(C)c(C)sc32)c1	-3%
Cc1cccn2c(=O)cc(COc3cccc(NC(=O)c4cccc(Cl)c4)c3)nc12	3%
COc1cccc(CNc2nccn(-c3ccc(OC)c(OC)c3)c2=O)c1	-2%
CCC(CC)C(=O)N1CCc2cc(OC)c(OC)cc2C1COc1ccc2c(C)cc(=O)oc2c1 (stereo not drawn)	-7%
COc1cc(C(=O)NCC(c2ccc3c(c2)OCO3)N2CCN(C)CC2)cc(OC)c1OC (stereo not drawn)	-7%
COC(=O)c1nnn(CC(=O)Nc2cc(F)ccc2F)c1C(=O)OC	1%
CCCCc1nn2c(=O)cc(CN(CC)c3ccccc3)nc2s1	-10%
Cc1ccc2[nH]c(CSc3nnc(NC(=O)COc4ccccc4C)s3)cc(=O)c2c1	-8%

The list goes on, starting with the last four of the part before.
SMILES	miR-21 FLuc
COc1cc(C(=O)NCC(c2ccc3c(c2)OCO3)N2CCN(C)CC2)cc(OC)c1OC (stereo not drawn)	-7%
COC(=O)c1nnn(CC(=O)Nc2cc(F)ccc2F)c1C(=O)OC	1%
CCCCc1nn2c(=O)cc(CN(CC)c3ccccc3)nc2s1	-10%
Cc1ccc2[nH]c(CSc3nnc(NC(=O)COc4ccccc4C)s3)cc(=O)c2c1	-8%
COCCNC(=O)CCCn1c(SCC(=O)c2ccc(Br)cc2)nc2c(sc3ccccc32)c1=O	-1%
Cc1ccc2cc3cc(C(=O)N4CCN(c5cccc(C(F)(F)F)c5)CC4)sc3nc2c1	1%
COCCN1Cc2cccc(C(=O)Nc3ccc(C)c(F)c3)c2C1=O	-4%
Cc1ccc(Cl)cc1NC(=O)CCS(=O)(=O)c1ccc(Br)s1	3%
CCOc1ccccc1C(=O)Nc1cccc(-c2nc3ccccc3s2)c1	-27%
Cc1ccc2nc(CSc3nnc(NC(=O)c4cccc(Br)c4)s3)cc(=O)n2c1	-5%
O=c1c2c3c(sc2nnn1Cc1ccc(Br)cc1)CCCC3	-27%
CCOC(=O)c1c(C)[nH]c(CCC(=O)Nc2ccccc2OCC)c1C	-2%
CCOc1ccc(-c2nnc(SCC(=O)NCCC(C)C)nc2-c2ccc(OCC)c(OC)c2)cc1OC	5%
Cc1ccc(NC(=O)CSc2nc(-c3ccco3)cc(C(F)(F)F)n2)c(C)c1	16%
CCOC(=O)Cn1c(=O)n(-c2cccc(Cl)c2)c2nc(-c3ccccc3Cl)nc(C(N)=O)c21	1%
O=C(Cc1ccccc1)Nc1cccc(-c2nc3cccnc3s2)c1	-1%
O=C(CSc1nc(-c2ccco2)nc2cc(=O)[nH]n12)Nc1ccccc1F	1%
CCCN1C(=O)C(O)(CC(=O)c2ccc(CC)cc2)c2ccccc21 (stereo not drawn)	1%
Cc1cccc(NC(=O)C(=O)NCC(c2cccnc2)N2CCc3ccccc32)c1C (stereo not drawn)	1%
Cn1c(=NC(=O)c2ccc(S(=O)(=O)N3CCCc4ccccc43)cc2)sc2cc(F)ccc21	2%
Cc1ccc(-c2ccc(CCC(=O)O)n2-c2ccc(C(C)C)cc2)cc1	-8%
COc1ccc(-c2cc(C(F)(F)F)c(C#N)c(SCC(=O)Nc3ccccc3F)n2)cc1	0%
COc1cccc(CCNC(=O)c2cnc3sc(N4CCOCC4)nn3c2=O)c1	-8%
CCOC(=O)c1cc(-c2ccccc2)n(-c2cccc(C(=O)Nc3cccc(SC)c3)c2)c1C	7%
CCn1c(CN2CCOCC2)nc2cc(NC(=O)c3cc(OC)c(OC)c(OC)c3)ccc21	6%
O=C(NCCc1ccccc1)c1ccc2c(c1)nc1n2CCOC1	-8%
COc1ccc(-n2c(SCC(=O)NCc3ccccc3)nc3ccsc3c2=O)cc1	-5%
CCN1CCN(c2ncnc3c2cnn3-c2ccc(C)c(Cl)c2)CC1	-1%
COc1ccc(-n2c(=O)c3c4c(sc3n(Cc3ccccc3Cl)c2=O)CCC4)c(OC)c1	3%
O=C(NCc1ccccc1F)c1ccc(CSc2nc3cccnc3n2Cc2ccccc2)cc1	8%
CCS(=O)(=O)NCCc1sc2nc(-c3ccc(OC)cc3)nn2c1C	6%
CCOc1ccccc1C(=O)Nc1ccc2nc3c(c(Nc4ccc(OC)c(OC)c4)c2c1)CCCC3	-2%
Cc1ccc(NC(=O)c2cc(S(=O)(=O)N3CCC4(CC3)OCCO4)ccc2F)cc1Cl	10%
O=C(Cn1c(=O)n(-c2ccccc2)c(=O)c2ccc(C(=O)NCc3ccc4c(c3)OCO4)cc21)Nc1ccc(F)c(Cl)c1	-2%
COc1ccc(NS(=O)(=O)c2cc3[nH]c(=O)c(=O)[nH]c3cc2C)cc1Cl	-3%
Cc1ccc(CNC(=O)Cn2ncc3c(C)n(Cc4ccc(Cl)cc4)c(C)c3c2=O)cc1	6%
COc1ccc(-c2cc(C)no2)cc1S(=O)(=O)NC1CCC(C)CC1 (stereo not drawn)	9%
O=C(Nc1ccc(Br)cc1)N1CCC(CN2CCCC2)CC1	1%
COc1ccccc1N1CCN(C(=O)C2CCN(S(=O)(=O)c3cn(C)cn3)CC2)CC1	0%
CC(C)(C)C1CCc2c(sc(NC(=O)Cn3nnc(-c4cccc(C(F)(F)F)c4)n3)c2C#N)C1 (stereo not drawn)	0%
Cc1ccc(C)c(NC(=O)c2cnn(-c3cccc(F)c3)c2C2CCN(C(=O)OC(C)(C)C)CC2)c1	u
COc1ccc(CNC(=O)Cn2c(=O)c3cccn3c3cccnc32)cc1	-11%
CC(=O)N1CCc2c(sc3nc(SCC(N)=O)n(-c4ccc(F)c(Cl)c4)c(=O)c23)C1	2%
CCc1ccccc1Nc1nn2c(=O)c3ccc(C(=O)NC4CCCCC4)cc3nc2s1	-1%

Grouped by structure: the entries above containing a cyano group (2)
SMILES	miR-21 FLuc
COc1ccc(-c2cc(C(F)(F)F)c(C#N)c(SCC(=O)Nc3ccccc3F)n2)cc1	0%
CC(C)(C)C1CCc2c(sc(NC(=O)Cn3nnc(-c4cccc(C(F)(F)F)c4)n3)c2C#N)C1 (stereo not drawn)	0%

Next records follow.
SMILES	miR-21 FLuc
COc1ccc(CCNC(=O)CCS(=O)(=O)c2cc3c(cc2Cl)NC(=O)CO3)cc1OC	-24%
COc1ccc(C)cc1NC(=O)Cn1c(=O)nc(-c2ccccc2F)c2cc(Cl)ccc21	-1%
Cc1cccc(CSc2ncc(Cl)c(C(=O)Nc3sc4c(c3C(N)=O)CCCC4)n2)c1	-3%
CCOc1ccccc1CNC(=O)c1cc(-c2ccc(Cl)s2)nc2ccccc12	-5%
COc1ccc(OC)c(Nc2ncnc3c2cnn3-c2cccc(Cl)c2)c1	8%
Cc1ccc2c(=O)cc(C(=O)Nc3ccc(S(=O)(=O)N(C)c4ccccc4)cc3)oc2c1C	0%
CCCN(Cc1cccs1)C(=O)Nc1cc(Cl)ccc1C	-12%
Cc1ccc(C)c(N2CCN(c3nc4ccccc4n4nnnc34)CC2)c1	-34%
CCOC(=O)c1cccc(NC(=O)[C@H](CSCc2ccccc2)N2Cc3ccccc3C2=O)c1	7%
COc1cccc(/C=C/c2nc3ccccc3c(=O)n2-c2ccc(C)c(C)c2)c1OC	3%

Quoted at random: 3 records from the list
SMILES	miR-21 FLuc
Cc1ccc(C)c(N2CCN(c3nc4ccccc4n4nnnc34)CC2)c1	-34%
CCOc1ccccc1CNC(=O)c1cc(-c2ccc(Cl)s2)nc2ccccc12	-5%
COc1ccc(C)cc1NC(=O)Cn1c(=O)nc(-c2ccccc2F)c2cc(Cl)ccc21	-1%

More structures follow:
SMILES	miR-21 FLuc
Cc1ccc(CNC(=O)c2cnn(-c3ccc(F)cc3F)c2C2CCN(C(=O)OC(C)(C)C)CC2)cc1	u
COc1ccc(NC(=O)Cn2c3ncccc3c(=O)n2-c2ccc(C)c(C)c2)c(OC)c1	7%
Cc1ccc2nc(COc3cccc(NC(=O)c4cccc(Cl)c4)c3)cc(=O)n2c1	-14%
CCN(C(=O)Cc1nc(-c2ccc(OC)cc2)no1)c1cccc(Cl)c1	-15%
CN1CCc2c(sc(NC(=O)c3ccc4ccccc4c3)c2C(N)=O)C1	-44%
COc1ccc(OC)c(CNC(=O)c2c(C)oc3ncn(C)c(=O)c23)c1	7%
Cc1oc(-c2ccccc2Cl)nc1CS(=O)(=O)CC(=O)NC(C)CCc1ccccc1 (stereo not drawn)	u
Cn1cnnc1SCC(=O)Nc1cc(C(=O)O)cc(C(=O)O)c1	0%
CC(C)c1ccc(C(=O)Nc2ccc(-c3nc4ccccc4s3)c(Cl)c2)cc1	-1%
CCOc1ccc(Br)cc1C1C(C(=O)Nc2ccccc2OC)=C(C)Nc2nnnn21 (stereo not drawn)	3%
COc1ccc2c(c1)c1c(c(=O)n(-c3ccc(F)c(Cl)c3)c(=O)n1Cc1cccc(C)c1)n2C	3%
CCN1C(=O)c2ccccc2S(=O)(=O)c2ccc(C(=O)NCc3ccc(C)cc3)cc21	1%
CC(C)Oc1ccc(C(=O)NCC(c2ccc(N(C)C)cc2)N2CCCC2)cc1 (stereo not drawn)	-8%
COC(=O)COc1ccc(Oc2nc(NC(C)(C)C)nc(N(C)C)n2)nn1	-2%
Cc1ccc(NC(=O)Cn2cc(S(=O)(=O)N3CCC(C)CC3)c3ccccc3c2=O)c(Br)c1	-2%
Cc1cccc(N2C(=O)C(CC(=O)Nc3ccc(F)cc3)N(C3CCCC3)C2=O)c1 (stereo not drawn)	9%
Cc1cc(OC(C)C(=O)N2CCC(c3nc4ccccc4o3)CC2)ccc1Cl (stereo not drawn)	12%
CC(=O)C1=C(c2ccc(C)cc2)N(C(C)=O)n2c(nnc2-c2ccccc2)S1	1%
COc1ccccc1CNC(=O)CC(c1ccc(F)cc1)N1Cc2ccccc2C1=O (stereo not drawn)	u
CCOC(=O)c1cnc2c(ccc3ccccc32)c1Nc1cccc(Cl)c1	-8%
CCc1cccc(CC)c1NC(=O)Cn1nnc2sc3c(c2c1=O)CCCC3	-2%
COc1cccc(CNC(=O)C(=O)Nc2c3c(nn2-c2ccccc2)CSC3)c1	-1%
CCOc1ccc(NC(=O)NC(C)c2c(-n3cccc3)sc(C)c2C)cc1 (stereo not drawn)	26%
COc1ccc(C(=O)Nc2ccc3nc4c(c(Nc5ccccc5OC)c3c2)CCCC4)c(OC)c1	-35%
O=C(Nc1ccc2nc(SCC(=O)N3CCCC3)sc2c1)c1cccc(F)c1	u
CCCCN(CCCC)S(=O)(=O)c1ccc(NC(=O)c2c(-c3ccccc3)noc2C)cc1	8%
CCOc1ccc(NC(=O)c2nnn(-c3ccc(F)c(Cl)c3)c2C)cc1	-3%
CCOC(=O)c1cnc2cc(F)c(F)cc2c1N1CCN(C)CC1	-11%
Cc1cccc(N2CCn3c2nc2c3c(=O)n(CCc3ccccc3)c(=O)n2C)c1	u
COC(=O)c1cccnc1-n1c(=O)c2cccnc2n(CC(=O)Nc2cccc(C(F)(F)F)c2)c1=O	4%
CCCCNC(=O)CCCn1c(=O)c2ccccc2n(Cc2ccccc2C)c1=O	-10%
O=C(Nc1ccccc1)c1ccc(Br)c(S(=O)(=O)N2CCCCC2)c1	6%
Cc1ccc(-n2nc3c(N4CCCC(C(=O)NCc5ccc(Cl)cc5)C4)nnc(C)c3c2C)cc1 (stereo not drawn)	-2%
CCOc1ccccc1NC(=O)Cn1c(=O)n(-c2ccc(C)cc2)c(=O)c2c1cnn2C	5%
CCCOc1ccc(C(=O)N(Cc2ccc(N(C)C)cc2)CC2CCCO2)cc1 (stereo not drawn)	0%
Cc1ccc(CSCCNC(=O)CN(c2cccc(C)c2C)S(=O)(=O)c2ccccc2)cc1	23%
CCc1ccc(NC(=O)CSc2cn(CC(=O)N3CCCC3)c3ccccc23)cc1	0%
CCc1ccc(NC(=O)c2cc(CN3CCOCC3)on2)cc1	-36%
CCc1ccc(S(=O)(=O)c2cn(C)c3cc(F)c(F)cc3c2=O)cc1	4%
Cc1cc2c(cc1S(=O)(=O)CCC(=O)N1CCN(c3ccccc3)CC1)OCC(=O)N2	-13%

The closing three compounds of the part above open the next one.
SMILES	miR-21 FLuc
CCc1ccc(NC(=O)c2cc(CN3CCOCC3)on2)cc1	-36%
CCc1ccc(S(=O)(=O)c2cn(C)c3cc(F)c(F)cc3c2=O)cc1	4%
Cc1cc2c(cc1S(=O)(=O)CCC(=O)N1CCN(c3ccccc3)CC1)OCC(=O)N2	-13%
COCCCNC(=O)CCCCn1c(=O)c2ccccc2n(CC(=O)Nc2ccc(C)cc2C)c1=O	0%
COc1cc(C(=O)N2CCNC(=O)C2CC(=O)Nc2ccc(C)c(C)c2)cc(OC)c1OC (stereo not drawn)	0%
Cc1cccc(NC(=O)CSC2=Nc3ccccc3C3=NC(CCC(=O)NCc4ccco4)C(=O)N23)c1 (stereo not drawn)	0%
Cc1cc2c(cc1S(=O)(=O)N(CCN(C)C)Cc1ccco1)OCC(=O)N2	-2%
Cc1ccc(CCNC(=O)CSCc2nc(-c3ccc(C)cc3)oc2C)cc1	23%
COc1ccc(OC)c(NC(=O)CSC2=Nc3ccccc3C3=NC(CCC(=O)NCc4ccccc4)C(=O)N23)c1 (stereo not drawn)	-4%
CCn1c(C(=O)N2CCC(C(=O)N3CCN(c4cccc(C)c4C)CC3)CC2)cc2sccc21	29%
CN(C)c1ccc(CNC(=O)C2CCCN(S(=O)(=O)c3ccc4c(c3)CCCC(=O)N4)C2)cc1 (stereo not drawn)	28%
CCOC(=O)C1CCC(CN(Cc2ccc(Cl)cc2)S(=O)(=O)c2cc(Cl)cc(Cl)c2)CC1 (stereo not drawn)	-1%
CCOc1ccc(-c2nnc(SCC(=O)NC3CCCCC3)nc2-c2ccc(OCC)c(OC)c2)cc1OC	-6%
Cc1ccc(NC(=O)c2ccc(CNS(=O)(=O)c3ccc4c(c3)C(C)(C)C(=O)N4C)cc2)cc1C	u
